# HNF4A DNA FP – change in binding of human HNF4 alpha to DNA. HNF4a-FITC DNA binding, fluorescence polarization, 1 h. activity change, % at 10 µM. 360,000 compounds, 0.3% hits. AID 1224865; in the data active means activity change above about 30%, passing the limit was not always enough;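 further: controls were the assay level and a saturating level of protein; the project sought stronger binding though the title names inhibitors; some compounds called inactive have numbers as strong as hits; positive values seem to mean higher polarization but the record does not say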
# Target sequence (P41235 whole entry, looked up): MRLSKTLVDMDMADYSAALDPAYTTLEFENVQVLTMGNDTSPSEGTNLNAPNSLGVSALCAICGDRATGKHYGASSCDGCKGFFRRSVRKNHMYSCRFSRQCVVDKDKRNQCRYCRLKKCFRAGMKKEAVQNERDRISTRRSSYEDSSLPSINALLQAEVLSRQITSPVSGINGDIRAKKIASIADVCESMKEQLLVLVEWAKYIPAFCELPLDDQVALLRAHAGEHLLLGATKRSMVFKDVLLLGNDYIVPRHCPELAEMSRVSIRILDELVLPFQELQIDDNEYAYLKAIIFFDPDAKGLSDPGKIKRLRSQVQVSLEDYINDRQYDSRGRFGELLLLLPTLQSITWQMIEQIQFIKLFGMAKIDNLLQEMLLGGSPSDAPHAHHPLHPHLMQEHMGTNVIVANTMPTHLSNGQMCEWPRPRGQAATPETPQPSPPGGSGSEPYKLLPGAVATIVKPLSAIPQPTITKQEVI
# Ecoli growth – inhibitors of Escherichia coli growth; OD600, 23 h; stronger effect = lower value; OD600 absorbance (no concentration beside the values); 330,000 compounds, 0.21% hits;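 active means OD600 absorbance below the run mean of sample wells minus 3.6 SD, in any replicate, cut at about 0.56 in these data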;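 further: stock transfer was 300 nL into about 60 µL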
# FGF22 binding – shifts melting point of recombinant human FGF22; recombinant FGF22 thermal shift, SYPRO orange fluorescence; percent of sucrose octasulfate shift, DMSO zero; calls only at 9.99 µM; 340,000 compounds, 1.5% hits; Q9HCT0;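 active means melting point raised past a set limit in the mean and every replicate; inconclusive means no clear call; three in four hits are not shown here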
# Target sequence (Q9HCT0 whole entry, looked up): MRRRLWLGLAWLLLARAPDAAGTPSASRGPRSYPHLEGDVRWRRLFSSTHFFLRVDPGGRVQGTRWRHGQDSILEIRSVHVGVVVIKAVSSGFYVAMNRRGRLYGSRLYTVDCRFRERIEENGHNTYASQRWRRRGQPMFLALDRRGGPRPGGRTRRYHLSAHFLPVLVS
# ALR H2O2 inh – inhibitors of human sulfhydryl oxidase ALR; AID 485317; purified ALR, DTT oxidation, H2O2 HRP-luminol luminescence; inhibition, % (test concentration not listed); P55789; 290,000 compounds, 3.8% hits;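 active means mean and each replicate at 75% or more; inconclusive means only one of the two met; inactive means neither met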;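 further: stock transfer was 7.5 nL into about 7.5 µL; 0% = neutral wells and 100% = wells with inactivated enzyme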
# Target sequence (P55789 whole entry, looked up): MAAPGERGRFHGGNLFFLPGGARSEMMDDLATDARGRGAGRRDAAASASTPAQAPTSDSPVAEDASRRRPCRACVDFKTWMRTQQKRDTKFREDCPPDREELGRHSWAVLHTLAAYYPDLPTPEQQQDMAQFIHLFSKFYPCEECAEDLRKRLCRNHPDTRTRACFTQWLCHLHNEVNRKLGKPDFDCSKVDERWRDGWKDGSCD
# AF4-AF9 inh – inhibitors of human MLL-AF4/AF9 interaction; AlphaScreen, biotin-AF4 peptide binding to FLAG-AF9; inhibition, % at 10 µM; 350,000 compounds, 0.47% hits;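 active means every replicate reaching a set inhibition limit, whatever the replicate mean, cut at about 25% in these data; inconclusive means mean inhibition reaches that limit but some replicates miss it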;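 further: 0% = plate neutral control median and 100% = total signal loss; the record names both 10 and 1 µM as test concentration; the first replicate is given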
# Vif A3G – HIV-1 Vif–A3G interaction blockers – biochemical, TR-FRET, GST-Vif 1-94, biotin-A3G peptide, dose response retest, primary screen (AID 1117319); TR-FRET GST-Vif / biotin-A3G peptide binding; higher % means a stronger effect; test concentration not given here; strong numbers were not always called active; one-dose inhibition, %; IC50 in µM for titrated hits; 260,000 compounds, 0.57% hits;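 active means above the screen mean plus three standard deviations and confirmed in dose response; inconclusive means results disagree or hit not tested in dose response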;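 further: Vif residues 1-94 fused to GST binding biotinylated APOBEC3G peptide 110-148; 0% = full assay without inhibitor and 100% = GST in place of GST-Vif; retest series ran down from 100 µM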
# Ecoli rRNA inh – inhibits bacterial ribosomal RNA function over humanized ribosomes; E. coli WT GFP vs humanized-ribosome RFP mutants, fluorescence, 24 h; stronger effect = lower value; DMSO median 0, no signal -100; GFP signal change (wild-type ribosome), % (no concentration beside the values); 350,000 compounds, 1.6% hits; AID 720706;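 active means significant combined selectivity score with lowered wild-type GFP, culture density cut under 30%, mutant RFP and density less affected; inactive means any of these conditions unmet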; further: one replicate is shown; some compounds called inactive have numbers as strong as hits
# Ecoli rRNA inh OD600 – recorded beside Ecoli rRNA inh, whose call it bears; OD600 change, %; measured here: OD600 growth;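 optical density of the mix in the first replicate; 0 = DMSO median and -100 = no signal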
# Ecoli rRNA inh RFP – also measured in Ecoli rRNA inh; calls as there; RFP signal change, %; measured here: RFP humanized mutant strains;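 first replicate; 0 = DMSO median and -100 = no signal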
# The depositor's hits bear a star; i = inactive; ? = inconclusive; · = no result given; & = joins results of further samples.
SMILES,HNF4A DNA FP,Ecoli growth,FGF22 binding,ALR H2O2 inh,AF4-AF9 inh,Vif A3G,Ecoli rRNA inh,Ecoli rRNA inh OD600,Ecoli rRNA inh RFP
CCOC(=O)Cn1c(CN2CCc3ccccc3C2)nc2c1c(=O)n(C)c(=O)n2C,-1.7,0.74,i,-18,-5.9,6%,-3,2,0.7
Cc1noc(C)c1S(=O)(=O)Nc1ccc2c(c1)CC(=O)N([C@@H](C)CO)C[C@H](C)[C@H](CN(C)C)O2,·,·,i,·,-1.2,·,3,11,-1.2
CN(CC(=O)NCCc1ccccc1)S(=O)(=O)c1cnc[nH]1,-0.2,0.7,·,·,·,0%,·,·,·
Cc1cc(C)n(-c2nnc(C)n2/N=C/c2ccccc2O)n1,3.3,·,·,4,·,-1%,·,·,·
O=C(CCc1nnc(CCCCc2ccccc2)o1)NCc1cc(F)ccc1F,4.2,0.66,·,0,0.1,-6%,·,·,·
CCOc1ccccc1N1CCN(C(=O)Nc2cccc(Cl)c2)CC1,1.4,0.73,·,42,·,-2%,·,·,·
O=C(c1cc([N+](=O)[O-])ccc1N1CCCCC1)N1CCCCC1,4.4,0.68,·,17,·,0%,·,·,·
CC(=O)c1cccc(NC(=O)/C(=C\c2cccnc2)NC(=O)c2ccc(C)cc2)c1,1.8,·,i,·,-0.6,·,12,11,-1.7
Brc1ccc(OCc2cn3ccccc3n2)cc1,-2.3,·,i,-5,-0.9,25%,-8,-12,9.9
C[C@H](CO)N1C[C@H](C)[C@@H](CN(C)S(=O)(=O)c2cn(C)cn2)Oc2ncc(/C=C/c3ccccc3)cc2C1=O,·,·,i,·,5.8,·,-4,-3,-2.3
CCCCOc1ccc(-c2nnn(CC(=O)NCCc3c[nH]c4ccccc34)n2)cc1,-1.2,0.66,·,-4,·,9%,·,·,·
Cn1c(=O)c2c(nc(OC3CCCC3)n2C)n(C)c1=O,-2.3,·,i,·,4.7,4%,6,4,-0.1
CC(=O)c1cccc(-c2ccnc3c2CC(C(=O)NCc2ccc(N4CCN(C)CC4)cc2)O3)c1 (stereo not drawn),6.2,·,i,·,1.3,·,1,0,-2.7
CC(C)(C)NS(=O)(=O)c1ccc(NS(C)(=O)=O)cc1,2.8,0.68,i,2,-4.2,6%,10,9,-4.0
C[C@H]1CN([C@@H](C)CO)C(=O)Cc2cc(NS(=O)(=O)c3ccc(Cl)cc3)ccc2O[C@H]1CN(C)Cc1ccc(Oc2ccccc2)cc1,·,·,i,·,1.3,·,2,8,0.3
COc1ccc(-n2c(-c3ccco3)nc3c(cnn3-c3ccc(C)cc3)c2=O)cc1,0.3,0.68,i,0,9.1,11%,8,7,-1.3
Cn1c(CC(=O)Nc2ccccc2)nnc1SCCOc1ccccc1,2.1,0.69,·,·,·,-1%,·,·,·
CCCC(=O)n1nc(-c2cccnc2)nc1NCc1ccc(OC)cc1,-3.7,0.73,i,·,1.8,3%,-17,-12,0.0
C[C@@H]1CN([C@@H](C)CO)C(=O)c2cc(NS(=O)(=O)c3ccc(Cl)cc3)ccc2O[C@H]1CN(C)Cc1ccncc1,3.0,·,i,1,7.4&3.7,·,-3&-7,3&-4,-2.4&1.6
N[C@H]1C(O)O[C@H](CO)[C@@H](O)[C@@H]1O (stereo partly drawn),1.8,·,i,-14,4.3,·,·,·,·
Cc1ccc(C(=O)O)c(C(=O)Nc2nc3ccccc3s2)c1,6.4,0.66,i,41,-49,-5%,5,10,-2.5
CCSc1ncnc2c1oc1ccccc12,-2.3,0.65,·,0,·,0%,·,·,·
Cc1ccc(NC(=O)c2c(-c3ccccc3Cl)noc2C)nc1,-1.8,0.71,i,2,·,-3%,22,1,1.0
O=C1NC[C@@H](Cc2cccc3ccccc23)N(CCc2cc(C(F)(F)F)cc(C(F)(F)F)c2)C1=O,-1.9,·,i,·,2.4,-8%,0,-14,3.2
COc1cc(-c2cc(C(=O)NCCc3ccc(S(N)(=O)=O)cc3)c3ccccc3n2)cc(OC)c1OC,2.0,0.64,i,-8,0.3,-5%,-11,-11,8.5
O=C(CN1C(=O)C2CCCCC2C1=O)Nc1cccc([N+](=O)[O-])c1 (stereo not drawn),1.4,0.6,·,·,1.1,-1%,1,2,-4.0
Cc1ccc(C(=O)N2CC(=O)Nc3ccccc32)o1,-0.6,0.7,·,15,·,31%,·,·,·
N#Cc1c(-c2ccccc2F)cc(C2CC2)nc1SCC(=O)c1cccs1,3.0,0.74,·,5,·,-3%,·,·,·
CC(=O)N1CCN(C(=O)c2cc(S(=O)(=O)N3CCCCC3)ccc2Cl)CC1,2.1,0.72,i,6,-1.4,0%,7,6,-1.9
C[C@H](CO)N1C[C@H](C)[C@@H](CN(C)Cc2ccc3c(c2)OCO3)Oc2ccc(NC(=O)Nc3ccc(F)cc3)cc2CC1=O,·,·,i,·,1.8,·,-10,-50,26
Cc1ccc(CSc2ncnc3onc(C)c23)cc1,2.8,0.65,i,-3,-3.1,·,7,10,3.3
CCCCc1nnc2c(N(C)S(=O)(=O)c3ccccc3)nc3ccccc3n12,-0.8,0.69,i,-7,-6.7,?,0,1,1.7
O=C(NC1CCCC1)c1cccc(Cl)c1,-5.7,0.68,i,-16,-0.2,-6%,4,5,-8.1
COc1ccc(/C(N)=N/O)cc1O,-1.9,0.67,i,·,-0.2,-1%,20,8,-7.5
c1ccc(CN2CCC(=NNc3nc4ccccc4[nH]3)CC2)cc1,-1.1,0.68,·,99*,34*,?,-27,-1,12
CC(C)(C)OC(=O)CC(S(=O)(=O)c1ccccc1)S(=O)(=O)c1ccccc1,0.7,·,i,·,-5.4,-8%,-10,-8,-1.9
C[C@@H]1CN([C@H](C)CO)C(=O)c2c(c3ccccc3n2C)-c2ccccc2CO[C@@H]1CN(C)Cc1cccc(C(F)(F)F)c1,·,·,i,·,5.7,·,0,4,0.5
O=C(c1ccc(Br)cc1)c1coc2ccc(O)cc12,-3.0,0.62,i,3,1.0,·,0,7,5.2
CN(C)C(=O)N1CCC(C(=O)N2CCCC(C(=O)c3ccc(C(C)(C)C)cc3)C2)CC1 (stereo not drawn),1.5,0.7,i,-8,0.5,3%,-17,-26,-2.3
O=C(O)C1(P(=O)(c2ccccc2)c2ccccc2)CCC1,-1.6,0.76,·,0,·,-2%,·,·,·

# 2 of these compounds, set out differently.
# Values run as follows: HNF4A DNA FP | Ecoli growth | FGF22 binding | ALR H2O2 inh | AF4-AF9 inh | Vif A3G | Ecoli rRNA inh | Ecoli rRNA inh OD600 | Ecoli rRNA inh RFP
- C[C@@H]1CN([C@H](C)CO)C(=O)c2c(c3ccccc3n2C)-c2ccccc2CO[C@@H]1CN(C)Cc1cccc(C(F)(F)F)c1
→ · | · | i | · | 5.7 | · | 0 | 4 | 0.5
- O=C(NC1CCCC1)c1cccc(Cl)c1
→ -5.7 | 0.68 | i | -16 | -0.2 | -6% | 4 | 5 | -8.1

# Additional compounds:
SMILES,HNF4A DNA FP,Ecoli growth,FGF22 binding,ALR H2O2 inh,AF4-AF9 inh,Vif A3G,Ecoli rRNA inh,Ecoli rRNA inh OD600,Ecoli rRNA inh RFP
CCN(C(=O)CSc1ccc2ccccc2n1)C1CCS(=O)(=O)C1 (stereo not drawn),0.2,0.72,i,-2,-0.8,-5%,-3,1,-1.2
O=C(NCCOc1ccccc1Cl)c1ncn[nH]1,-14,0.67,i,-6,-0.9,4%,22,21,0.3
O=C(CCc1ccccc1)NC1(Cc2ccccc2)CCN(CCc2cccs2)C1=O (stereo not drawn),-0.1,0.7,i,-2,-0.7,·,-10,-6,7.0
C[C@H](NC(=O)N(C)C[C@@H]1OCc2ccccc2-c2ccccc2C(=O)N([C@H](C)CO)C[C@@H]1C)c1ccccc1,·,·,i,·,-6.3,·,-1,6,-2.7
COc1ccccc1CNC(=O)C[C@@H]1C=C[C@@H](NC(C)=O)[C@H](CO)O1,·,·,i,·,-1.3,·,-1,6,-2.3
Cc1nn(C(C)C(=O)NCc2ccco2)c(C)c1[N+](=O)[O-] (stereo not drawn),-3.5,0.64,i,·,-4.2,1%,9,16,0.9
CCOc1ccc(-c2nc(CN(Cc3ccccc3)C[C@@H]3CCC(=O)N3)c(C)o2)cc1,-1.2,0.63,·,-23,14,2%,5,-4,2.6
CCN(CC(=O)Nc1c(F)cccc1F)C(=O)Cn1[nH]c(=O)c2ccccc2c1=O,-1.5,0.7,i,·,-18,·,1,5,-2.9
Cc1cc(C)cc(N2C(=O)CC(n3ccnc3)C2=O)c1 (stereo not drawn),2.6,0.71,·,-3,·,2%,·,·,·
CC(=O)N(Cc1cc2ccccc2[nH]c1=O)c1ccc(C)cc1,0.2,0.72,i,·,-0.5,·,7,1,0.8
CCOc1ccc(C(C)=O)cc1Cn1nc(C(=O)O)c2ccccc2c1=O,-0.6,0.68,·,2,·,-5%,·,·,·
CN(C)c1cc(-c2ccc(Cl)cc2)oc(=O)c1Cl,0.7,0.64,i,·,-1.5,-12%,-30,-26,-1.5
Cc1ccccc1Cn1nc(C)c(NC(=O)c2cc(-c3cccs3)on2)c1C,1.7,0.65,·,1,·,12%,·,·,·
CCOC(=O)c1c(N)sc(C(=O)Nc2ccccc2F)c1C,3.2,0.67,i,-3,0.5,·,-26*,-21*,0.9*
CC1(C(=O)Nc2ccc3nc[nH]c3c2)CCN1C(=O)CCc1ccccc1 (stereo not drawn),-0.5,·,i,·,1.4,·,4,3,1.5
COC(=O)CCC(=O)Nc1c(C)n(C)n(-c2ccccc2)c1=O,-0.2,0.73,i,4,-2.1,-2%,28,15,0.2
C[C@@H]1CCCCO[C@@H](CN(C)Cc2ccc(Cl)c(Cl)c2)[C@@H](C)CN([C@H](C)CO)C(=O)c2cc(NC(=O)Cc3ccccc3)ccc2O1,·,·,i,·,-0.5,·,0,-8,1.6
CN1C(=O)c2cc(NS(=O)(=O)c3ccc(Cl)cc3)ccc2OC[C@H]2O[C@H](CC(=O)O)CC[C@H]21,·,·,i,·,-0.5,·,-4,-13,-0.7
C[C@H](CO)N1C[C@H](C)[C@H](CN(C)C(=O)Nc2ccc(C(F)(F)F)cc2)Oc2ccc(NC(=O)Nc3cccc4ccccc34)cc2C1=O,·,·,i,·,2.0,·,-10,-19,-2.7
Cc1cc(C)cc(OCC(O)CN2CC(C)OC(C)C2)c1 (stereo not drawn),0.0,0.65,i,1,5.3,·,7,10,-0.5
N#C[C@H]1[C@@H](c2ccc(-c3cccc(F)c3)cc2)[C@@H](CO)N1S(=O)(=O)c1cccc(F)c1,·,·,i,·,-0.2,·,-18,-54,5.6
CCCCCCCCN1C(=O)[C@H](CC(=O)NCCc2ccccc2OC)C[C@@]2(C(=O)OCC)CCCC=C12,-3.7,·,i,·,-2.8,·,3,11,7.2
COc1ccc(Cl)cc1NC(=S)NNC(=O)CC(C)C,0.0,0.64,i,13,-4.2,?,-20,-16,-5.5
COCc1c(C(=O)OCC(=O)NCCc2ccc(S(N)(=O)=O)cc2)oc2ccccc12,0.4,0.7,i,-4,-4.7,·,5,7,-1.2
COC(=O)C[C@H]1CC[C@H]2[C@H](COc3ccc(NC(=O)Nc4c(C)noc4C)cc3C(=O)N2C)O1,·,·,i,·,-1.7,·,4,4,-1.8
CC1CCN(C(=O)/C(=C\c2cccs2)NC(=O)c2ccccc2)CC1,0.6,0.64,i,7,-0.8,0%,-8,-13,-0.5
OCCNc1nc(Nc2ccccc2OC(F)(F)F)nc(N2CCCC2)n1,1.2,0.67,i,48,3.3,·,-4,-1,12
CC(=O)Nc1cccc(C(=O)N2CCN(Cc3ccccc3)CC2)c1,-1.3,0.65,·,-8,·,5%,·,·,·

# Source: PubChem BioAssay (several laboratories)

# These rows are one share of the data, so the mix of outcomes need not match the whole.
